Marburg entry inh = blocks Marburg virus binding to or entry into cells; Marburg virus pseudotyped entry inhibition, cell reporter; control for the full effect not named in the record; about a third of the inactives were read at about 46 µM; Potency, µM (highest dose often 37.8 µM), without a hit: top-dose activity change, negative = inhibition, usual class: inhibitors; 300,000 compounds, 1.8% hits; active = well fitted inhibition curve with a large enough effect; inconclusive = small, poorly fitted or top-dose-only effect, or effect the other way; inactive = flat fitted curve, though single readings scatter; tested in HEK293 cells; about a fifth of its hits are not listed in these tables; also: % is scaled to controls: 0 for no effect and ±100 for the full control effect; luciferase read-out
RE007 growth inh = less growth of the S. pombe RE007 Vpr strain; S. pombe RE007 Vpr strain, BacTiter-Glo ATP luminescence, 24 h; control for the full effect not named in the record; Potency, µM (highest dose often 92.2 µM), inactives show at the top dose activity change, negative = less growth; 360,000 compounds, 0.21% hits; active = well fitted falling curve with a large enough effect; inconclusive = small, poorly fitted or top-dose-only effect; inactive = no such curve, though single readings can be large or run the other way;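 also: % is scaled to controls: 0 for no effect and ±100 for the full control effect; nearly all actives have a fitted effect of over 50% in size; the assay follows cell death caused by Vpr and the record does not say whether a fall means rescue or toxicity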
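Fission yeast RE007 carrying one integrated HIV-1 vpr copy, seeded at OD 0.01 in PMG+AL medium with 23 nL pinned compound. Grown 24 h at 30 degrees; viability read by BacTiter-Glo luminescence after 5 min.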
SARS PLpro yeast = inhibitors of SARS-CoV papain-like protease in yeast; S. cerevisiae expressing SARS-CoV PLpro, growth rescue; control for the full effect not named in the record; Potency, µM (doses to about 32.9 µM), for inactives: top-dose activity, positive = growth rescue; 330,000 compounds, 0.19% hits; active means well fitted rising curve with a large enough effect; inconclusive means small, poorly fitted or top-dose-only effect; inactive means no such curve, though single readings can be large or run the other way; also: 0% is about no effect; nearly all actives have a fitted effect of over 55% in size; growth read by luminescence after 48 h
LASV entry inh = inhibitors of Lassa virus binding or cell entry; Lassa virus pseudotype entry inhibition, cell reporter; control for the full effect not named in the record; Potency, µM (titrated, usually from 37.9 µM), for inactives: top-dose activity change, negative = inhibition, actives largely listed as inhibitors; AID 540256; 300,000 compounds, 1.2% hits; active means well fitted inhibition curve with a large enough effect; inconclusive means small, poorly fitted or top-dose-only effect, or effect the other way; inactive means flat fitted curve, though single readings scatter; tested in HEK293 cells; also: % is scaled to controls: 0 for no effect and ±100 for the full control effect; nearly all actives have a fitted effect of over 50% in size; luciferase read-out
2A StopGo = FMDV 2A StopGo reporter, luciferase signal; 410,000 compounds, 1.2% hits; AID 1159524; human cells with a luciferase reporter of 2A StopGo recoding; control for the full effect not named in the record; Potency, µM (highest dose often 57.9 µM), for inactives: at the highest dose signal change, negative = less light; active = well fitted falling curve with a large enough effect; inconclusive = small, poorly fitted or top-dose-only effect; inactive = no such curve, though single readings can be large or run the other way; tested in HEK293T cells; also: % is scaled to controls: 0 for no effect and ±100 for the full control effect; nearly all actives have a fitted effect of over 45% in size; luciferase light after 4 h
Cruzain inh noDet = cruzain (T. cruzi) inhibition without detergent | P25779 | Potency, µM, for inactives: max response, negative = inhibition, usual class: inhibitors | 200,000 compounds, 2.3% hits | purified cruzain, Z-FR-AMC fluorescence, no detergent | AID 1476;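 also: plate controls were enzyme without inhibitor for no effect and buffer without enzyme for full effect; nearly all actives have a fitted effect of over 40% in size; top concentration of the series not given in the record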
Target sequence (P25779 123-467 limits assumed): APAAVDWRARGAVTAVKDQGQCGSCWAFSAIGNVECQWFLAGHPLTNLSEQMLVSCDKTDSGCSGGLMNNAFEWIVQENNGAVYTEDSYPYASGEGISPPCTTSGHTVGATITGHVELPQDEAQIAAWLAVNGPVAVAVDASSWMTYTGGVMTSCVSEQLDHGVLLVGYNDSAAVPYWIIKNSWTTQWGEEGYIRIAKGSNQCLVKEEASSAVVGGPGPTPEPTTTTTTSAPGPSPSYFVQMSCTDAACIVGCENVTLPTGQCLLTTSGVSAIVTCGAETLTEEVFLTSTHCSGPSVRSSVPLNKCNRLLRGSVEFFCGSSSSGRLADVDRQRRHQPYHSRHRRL
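Detergent-free condition (0.00005% Triton X-100) in acetate buffer pH 5.5 with DTT. 1.5 nM enzyme and compound were pre-mixed 15 min, then 2 uM Z-FR-AMC substrate added; reaction progress from fluorescence change between first and third reads (60 s).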
Cruzain Triton = blocks cruzain activity in presence of Triton detergent; purified cruzain, Z-FR-AMC fluorescence, 0.01% Triton; Potency, µM, without a hit: max response, negative = inhibition, most hits filed as inhibitors; 200,000 compounds, 0.43% hits; AID 1478;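 also: plate controls were neutral wells for no effect and buffer without enzyme for full effect; nearly all actives have a fitted effect of over 40% in size; top concentration of the series not given in the record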
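Steps: dispense cruzain (1.5 nM final) in acetate buffer pH 5.5 with DTT and 0.01% Triton X-100; pin-transfer compounds; incubate 15 min RT; add Z-FR-AMC (2 uM final); read fluorescence every 30 s, using the 60 s intensity change.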
NS1 inh = influenza NS1 inhibition; S. cerevisiae slowed by influenza A NS1, growth recovery by OD600; Potency, µM (doses to about 46.1 µM), for the others: top-dose activity, positive = more growth; 270,000 compounds, 0.4% hits; active means well fitted rising curve with a large enough effect; inconclusive means small, poorly fitted or top-dose-only effect; inactive means no such curve, though single readings can be large or run the other way; also: nearly all actives have a fitted effect of over 50% in size
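Compounds were scored for reversing the slow growth caused by influenza A NS1 in S. cerevisiae, measured by optical density at 600 nm. Assay medium contained 2% galactose at pH 6.0; NS1-free yeast of the same strain were the positive control.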
Active calls of the source: *; ? = inconclusive; . = no result given; & = joins results of further samples; [ ] = another dose, or the depositor's remark. Unless noted, calls follow the shape of the dose curve; as a rule, active = well fitted curve in the direction sought with a large enough effect; inconclusive = small, poorly fitted or top-dose-only effect, or another doubt; inactive = no such curve, though single readings can be large; an effect the other way counts as inactive or inconclusive. Potency is read from the fitted curve at half-maximal effect.

SMILES | Marburg entry inh | RE007 growth inh | SARS PLpro yeast | LASV entry inh | 2A StopGo | Cruzain inh noDet | Cruzain Triton | NS1 inh
CCC(C)NC(=O)CCSc1nc(-c2ccc(OC)cc2)cc(C(F)(F)F)n1 (centres undefined) | 22%[46.1 µM] | . | . | 2%[46.1 µM] | -22% | 29% | -1.9% | .
CC(=O)Nc1ccc(NC(=O)CSc2nnc3ccc(-c4ccc(F)cc4)nn23)cc1 | -15%[46.1 µM] | -8% | 0% | ? | -18% | . | . | 4%
COc1ccc(CCNC(=O)c2cccc3c2C(=O)N(C2CCCCC2)C3)cc1OC | ? | 5% | ? | ? | -20% | . | . | -23%
Cc1cccc(NC(=S)NC(=O)c2ccco2)c1C | . | -23% | 1% | . | 23% | . | . | -1%
O=C(Nc1nnc(Cc2ccc([N+](=O)[O-])cc2)s1)Nc1ccccc1F | . | 9% | 0% | . | -3% | . | . | 4%
Cc1ccc(C)c(C(=O)CSc2nnnn2-c2cccnc2)c1 | -13% | -16% | -5% | 18% | 16% | 2% | 0.8% | -22%
CCOc1ccc(-c2cc(NC(=O)Cn3ncc4c3-c3ccccc3OC4)on2)cc1OCC | . | 7% | 3% | . | ? | ? | 3.7% | ?
Oc1ccc2ccccc2c1C=Nc1ccccc1-c1nc2ccccc2[nH]1 | ? | 4% | -25% | ? | 6% | -21% | -9.2% | -222%
Cn1c(N=NC(=O)c2ccccc2)c(O)c2ccccc21 | ? | -29% | -35% | ? | -54% | ? | -3.8% | -20%
COC(=O)c1[nH]c2ccccc2c1NC(=O)CN1CCCCCC1 | 0%[46.1 µM] | 20% | 8% | ? | -7% | -11% | 1.2% | 4%
COC(=O)c1ccc(CN2C(=O)NC(CC(C)C)C2=O)cc1 (centres undefined) | ? | -6% | 1% | -21%[46.1 µM] | 0% | . | . | .
CCOc1ccccc1NC(=O)c1c(NC(=O)COc2ccc(Cl)cc2)sc2c1CCCCC2 | . | . | . | 20%[46.1 µM] | -3% | -2% | -1.3% | .
CCOC(=O)N1CCN(Cc2nc3cc([N+](=O)[O-])ccc3n2C)CC1 | 10%[46.1 µM] | 2% | 0% | 30%[46.1 µM] | -17% | . | . | 1%
O=C(Cc1ccc(F)cc1)NCCc1csc(-c2ccc(C(F)(F)F)cc2)n1 | . | . | . | 2%[46.1 µM] | -13% | ? | -10% | .
Cc1c(C(=O)Nc2nc(-c3ccc(F)cc3)ns2)oc2ccc(Br)cc12 | -2%[46.1 µM] | . | . | ? | -4% | 1% | 2.0% | .
Cc1cc(-c2ccc(S(=O)(=O)N3CCN(c4cccc(C(F)(F)F)c4)CC3)s2)on1 | . | 3% | 13% | . | -19% | . | . | 16%
O=C(COc1cc2oc(=O)c3c(c2cc1Cl)CCC3)NCCCN1CCOCC1 | ? | -7% | 1% | 7%[46.1 µM] | -8% | . | . | -7%
CN(C)c1ccc(/C=C2/NC(=O)NC2=O)cc1 | 4% | 9% | 4% | 7% | 47%[activator] | -13% | -9.3% | 10%
CN(C)c1nc2ccccc2c(N)c1-c1ccccc1 | ? | -9% | -4% | -13% | -13% | -5% | -2.8% | -10%
CC(=O)N/C(=C\c1cccs1)C(=O)O | ? | 3% | 1% | 24% | -1% | . | . | .
O=C(CC(O)c1ccccc1)Nc1ccccn1 (centres undefined) | 3% | -9% | . | -1% | 7% | . | . | .
O=C1/C(=C/c2cccc3ccccc23)CCCc2ccccc21 | -3%[46.1 µM] | 1% | -4% | 2% | 8% | -25% | -4.9% | -16%
CCCCOC(=O)Nc1cc(C)c(Cl)cc1OC | -22%[46.1 µM] | -19% | -3% | ? | 16% | 3% | 0.9% | -1%
CCCC(=O)Nc1cc(C(F)(F)F)ccc1N1CCOCC1 | ? | -1% | -4% | ? | -5% | . | . | .
O=C(COc1ccc2c(c1)C(=O)CC1(CCCCC1)O2)NCc1ccccn1 | ? | 6% | -12% | -11% | -28% | 15% | -11% | -15%
Further compounds:
SMILES | Marburg entry inh | RE007 growth inh | SARS PLpro yeast | LASV entry inh | 2A StopGo | Cruzain inh noDet | Cruzain Triton | NS1 inh
Fc1ccc(N2CCN(C3=Nc4cccc5cccc3c45)CC2)cc1 | ? | 1% | 0% | ? | -1% | . | . | .
O=C(Nc1ccc(N2CCCCC2)cc1)c1cncc(Br)c1 | ? | -9% | -7% | -18% | 40%[activator] | -4% | 1.1% | -10%
Cc1nn(CC(=O)N/N=C/c2ccc3c(c2)OCO3)c(C)c1Br | 4% | 2% | 0% | 1% | -4% | -17% | 0.1% | 11%
CCCC(=O)N(CCN1CCOCC1)c1nc2c(C)cccc2s1 | -6%[46.1 µM] | -8% | 29% | -2%[46.1 µM] | -23% | . | . | -28%
c1ccc(Nc2nc3ccccc3o2)cc1 | -25% | ? | 5% | 45%[14.3 µM] | 47%[activator] | -9% | 1.3% | -56%
CCCCNC(=S)N/N=C/c1cccc(OCC)c1O | -1%[46.1 µM] | 0% | 1% | 7% | -15% | . | . | -8%
CC(C)c1nnc(NC(=O)CCS(=O)(=O)Cc2ccccc2)s1 | 4%[46.1 µM] | -1% | 0% | 0%[46.1 µM] | -11% | . | . | 5%
COc1ccccc1Cn1c(=S)[nH]c2cc(C(=O)N3CCC(C(N)=O)CC3)ccc2c1=O | . | 8% | -2% | . | -1% | . | . | -5%
CCCN(C(=O)CSc1nnnn1C)C1CCS(=O)(=O)C1 (centres undefined) | 2%[46.1 µM] | -4% | 0% | 12% | 3% | . | . | 5%
CS(=O)(=O)N1CCCC(C(=O)Nc2ccc(F)cc2F)C1 (centres undefined) | 3%[46.1 µM] | 5% | 4% | 28%[46.1 µM] | -11% | . | . | .
Cc1cc(C)n2nc(SCc3ccc(C#N)cc3)nc2n1 | . | 7% | 2% | 4% | -4% | . | . | 2%
CCNc1nc(NCC)n2c(SCC(=O)Nc3ccccc3F)nnc2n1 | 28%[46.1 µM] | -17% | 15% | -16% | -3% | . | . | .
CCC(=O)c1ccc(OCC(=O)OCC(=O)NCc2cccs2)cc1 | 19% | -2% | -1% | 10% | -17% | . | . | .
CC1CCN(S(=O)(=O)c2cnc[nH]2)CC1 | . | -10% | -5% | . | -9% | . | . | -5%
O=C(O)C1C2C=CC(C3CC23)C1C(=O)O (centres undefined) | 1% | 4% | ? | 1% | . | 10% | 2.0% | -12%
O=C(c1cccc(C(F)(F)F)c1)C1CCCN(Cc2cccc(OCCO)c2)C1 (centres undefined) | ? | -22%&-23% | 0% | -3% | ? | . | . | 7%
O=C(Nc1ccccc1N1CCOCC1)c1ccc(OCc2cscn2)cc1 | -23%[46.1 µM] | 2% | 1% | ? | -26% | . | . | -10%
O=C(NC(=S)NCc1ccccc1)C1CC1 | -19%[46.1 µM] | -17% | 1% | -14% | 0% | . | . | 6%
Cc1ccc(NC(=O)c2ccnc(C(C)(C)C)c2)cc1 | 7% | 19% | 28% | ? | -4% | 10% | -5.0% | -8%
CCOC(=O)c1csc(NC(=O)CN2CCOCC2)n1 | . | 15% | 1% | . | -13% | . | . | 5%
CCN(CC)CCCNC(=O)c1nn(C)c2c1CS(=O)(=O)c1ccccc1-2 | . | . | . | 0%[46.1 µM] | -8% | 3% | -2.8% | .
CCOC(=O)c1nc2cc3n(c(C)c-2c1C)C(C)C(C)=C3C (centres undefined) | 1% | -7% | 1% | 12% | -13% | -11% | -5.3% | 18%
ON=C1c2ccccc2-c2ccc(O)cc21 | 0% | 2% | . | 23%[46.1 µM] | 38%[activator] | . | . | .
Cc1cc(C)cc(NC(=O)c2cccc3c2C(=O)N(C2CCCCC2)C3)c1 | ? | 13% | . | 2%[46.1 µM] | -16%&-13% | -5% | -0.3% | 12%
CCOc1ccc(N2C(=O)S/C(=C\c3ccc(O)c(OC)c3)C2=O)cc1 | . | 3% | -1% | . | -15% | . | . | 3%

The final 3 entries of the part above open the next one.
SMILES | Marburg entry inh | RE007 growth inh | SARS PLpro yeast | LASV entry inh | 2A StopGo | Cruzain inh noDet | Cruzain Triton | NS1 inh
ON=C1c2ccccc2-c2ccc(O)cc21 | 0% | 2% | . | 23%[46.1 µM] | 38%[activator] | . | . | .
Cc1cc(C)cc(NC(=O)c2cccc3c2C(=O)N(C2CCCCC2)C3)c1 | ? | 13% | . | 2%[46.1 µM] | -16%&-13% | -5% | -0.3% | 12%
CCOc1ccc(N2C(=O)S/C(=C\c3ccc(O)c(OC)c3)C2=O)cc1 | . | 3% | -1% | . | -15% | . | . | 3%
COc1cccc(C(=O)NC(=S)N2CCN(c3ccc(C(F)(F)F)cc3[N+](=O)[O-])CC2)c1 | 7% | . | -1% | -15% | 0% | 2% | -11% | 9%
CCc1ccccc1NC(=S)N(Cc1cccnc1)Cc1ccco1 | 7% | ? | 12% | 18% | -4% | 4% | 1.4% | 10%
COc1ccc(N2C(=O)CSCC2=O)cc1OC | -10%[46.1 µM] | 1% | -2% | -3%[46.1 µM] | -10% | . | . | .
Cc1cccc(Cn2c(SCc3ccc(C(=O)NCc4cccs4)cc3)nc3ccncc32)c1 | -1%[46.1 µM] | . | . | -16%[46.1 µM] | -15% | ? | -7.4% | .
COc1ccc(C2CCN(Cc3cccnc3)CC2O)cc1 (centres undefined) | -13% | -18% | ? | 0% | -22% | 4% | 1.4% | -3%
COc1ccc(C)cc1NS(=O)(=O)c1cc(Br)cc2c1N(C(C)=O)C(C)C2 (centres undefined) | -6%[46.1 µM] | . | . | -1%[46.1 µM] | 36%[activator] | 15% | -2.7% | .
COc1ccc(CNC(=O)c2sc3nc4n(c(=O)c3c2C)CCCC4)cc1 | . | . | . | -2%[46.1 µM] | 12% | 5% | -3.8% | .
COc1cccc(CN(C)C(=O)CNC(=O)c2ccc(-c3ccccc3)cc2)c1OC | ? | 26% | 0% | ? | ? | . | . | -13%
CCOC(=O)c1c(C(=O)OCC)c(C)n(CCc2ccc(OC)c(OC)c2)c1C | ? | -7% | 25% | -8% | -7% | ? | -6.8% | -4%

Assay outcomes deposited in PubChem by National Center for Advancing Translational Sciences (NCATS).
